Compound activity deposited in PubChem by National Center for Advancing Translational Sciences (NCATS).
miR-21 FLuc: qHTS Assay for Modulators of miRNAs and/orActivators of miR-21 | 340,000 tested, under 10 active | HeLa miR-21 FLuc reporter, luciferase, 48 h | Potency, µM (series often up to 38.3 µM), for inactives: at the highest dose reporter change, positive = more light | AID 2288, 2010; active = well fitted rising curve with a large enough effect; inconclusive = small, poorly fitted or top-dose-only effect; inactive = no such curve, though single readings can be large or run the other way;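 note: % of control where 0% means no effect; miR-21 action dims this reporter so a rising signal means less miR-21 action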
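HeLa cells stably expressing CMV-driven firefly luciferase with a downstream miR-21 binding sequence, endogenously expressing miR-21, were treated with titrations (up to about 40uM final) for 48 hours at 37 degree Celsius. Luciferase luminescence was read after lysis.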
Rango dissoc inh: qHTS Assay for Inhibitors of RanGTP induced Rango (Ran-regulated importin-beta cargo) - Importin beta complex dissociation; AID 540253, 2011; actives 0.071% (n = 340,000); Biochemical FRET Rango-importin beta, RanGTP-induced dissociation; Potency, µM (doses to about 46.1 µM), inactives show top-dose activity change, negative = inhibition; active means falling FRET ratio curve, often poorly fitted, with flat reads before Ran was added; inconclusive means other falling curves, or compound fluorescence or quenching; inactive means flat or rising ratio curve;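 note: potency is the fitted concentration of half-maximal effect; % of control where 0% means no effect; nearly all actives have a fitted effect of over 45% in size; -100% = wells without RanGTP and RCC1; the record marks most hits as doubtful in a second field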
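Rango (0.1 uM)–importin beta (0.25 uM) complex; RanGTP-RCC1 trigger; 45 min RT; CFP/YFP FRET read.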
GLA inh pH 4.5: qHTS Assay for Inhibitors of Human alpha-Galactosidase at pH 4.5 | Alpha-galactosidase A (Homo sapiens), P06280 | purified enzyme, 4-MU-alpha-Gal fluorescence, pH 4.5 | 230,000 tested, under 10 active | AID 1467, 2008 | activity change, negative = inhibition, % at 105 µM; inconclusive = small, poorly fitted or top-dose-only inhibition, or a rising curve; inactive = flat fitted curve, though single readings scatter; no compound was filed as active;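 note: 0% = full activity with enzyme and -100% = basal without enzyme; dose as in the result columns while the protocol names 77 µM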
Target sequence (P06280 whole entry, looked up): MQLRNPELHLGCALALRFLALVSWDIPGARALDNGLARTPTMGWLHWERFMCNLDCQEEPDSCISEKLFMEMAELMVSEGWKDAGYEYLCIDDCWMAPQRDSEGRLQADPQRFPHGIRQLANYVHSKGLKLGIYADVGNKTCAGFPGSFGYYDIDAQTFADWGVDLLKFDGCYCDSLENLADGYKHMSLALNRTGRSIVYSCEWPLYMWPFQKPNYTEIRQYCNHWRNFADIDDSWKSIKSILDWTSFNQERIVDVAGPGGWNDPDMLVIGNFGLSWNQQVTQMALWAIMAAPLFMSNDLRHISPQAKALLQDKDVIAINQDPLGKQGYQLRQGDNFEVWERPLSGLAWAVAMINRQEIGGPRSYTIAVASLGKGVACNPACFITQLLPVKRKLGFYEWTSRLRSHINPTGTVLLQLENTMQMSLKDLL
Rango complex inh: qHTS Assay for Inhibitors of Rango (Ran-regulated importin-beta cargo) - Importin beta complex formation | Importin subunit beta-1 (Homo sapiens), Q14974 | Rango CFP/YFP FRET sensor + importin beta, 45 min | Potency, µM (titrated, usually from 92.2 µM), for the others: at the top dose inhibition of complex formation | actives 0.031% (n = 340,000) | AID 540263, 2011; active = rising FRET ratio curve, often small or poorly fitted; inconclusive = mostly compound fluorescence or quenching in the first reads; inactive = flat curves in all reads;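 note: potency is the fitted concentration of half-maximal effect; 0% = DMSO wells and 100% = buffer wells lacking importin beta; nearly all actives have a fitted effect of over 15% in size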
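FRET biosensor (snurportin 1 IBB flanked by EYFP and cerulean), 50 nM, with compound 5 min, then 0.125 microM importin beta in PBS, 1 mM DTT, 0.02% Tween-20, 0.1% BSA. CFP/YFP ratio read after 45 min at room temperature; pre-read flags interference.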
An asterisk follows results filed as active; ? = inconclusive; / = not tested or not shown; & = joins results of further samples. The list is partial; count on the stated rates, not on these rows.

No.	structure	miR-21 FLuc	Rango dissoc inh	GLA inh pH 4.5	Rango complex inh
1	CCOc1cccc(C(=O)N2CCCCC2c2cccnc2)c1 (stereo not given)	-7%	-9%	-14	-0.1%
2	COc1ccc(NC(=O)CSc2nc(N)c3cc4c(nc3n2)CC(C)(C)OC4)cc1	0%	9%	-1	0.2%
3	CC(=O)Nc1ccccc1NC(=O)c1cc(C)cc(C)c1	4%	7%	5	0.9%
4	COc1ccccc1-c1nnc(SCC(=O)NC2CCCCC2)n1N	/	-13%	/	-4.2%
5	CN(C)CCC(=O)NCC1OCCc2ccccc21 (stereo not given)	1%	2%	2	0.0%
6	Cc1cc(C)c(NC(=O)c2ccoc2C)c(C)c1	-4%	0%	8	5.0%
7	CCOC(=O)N1CCN(C(=O)C(=O)Nc2sc3c(c2C(N)=O)CC(C)(C)OC3)CC1	0%	-6%	/	2.4%
8	Cc1ccc(-n2c(N)cc(=O)nc2SCC(=O)N2CCN(c3ccccc3)CC2)cc1	-7%	10%	/	-0.6%
9	CC(Sc1nnc(-c2cccnc2)n1-c1ccccc1)C(=O)NCc1ccc2c(c1)OCO2 (stereo not given)	-44%	2%	-12	0.1%
10	COc1ccc(C(C)C)cc1S(=O)(=O)N1CCN(C)CC1	-8%	1%	0	0.6%
11	N#Cc1c(NC(=O)CN2CCOCC2)oc(-c2ccccc2)c1-c1ccccc1	14%	-3%	-1	-0.3%
12	O=C(CCCSc1nc2ccccc2[nH]1)Nc1nnc(-c2ccccc2)o1	-1%	13%	-20	-1.1%
13	CCOc1ccc(NC(=O)COc2ccc(OC)cc2)cc1	0%	6%	4	0.8%
14	CCc1ccc(C2N(c3ccc(OC)cc3)C(=O)C3CCCN32)cc1 (stereo not given)	-8%	25%	0	6.7%
15	COC(=O)c1cc(NC(=O)c2cccc([N+](=O)[O-])c2C)ccc1Cl	2%	1%	2	2.0%
16	COc1ccc(-c2cc(C(=O)N3CCc4ccccc4C3)no2)cc1OC	-20%	2%	-5	4.3%
17	COc1ccccc1CNC(=O)C(C)NS(=O)(=O)c1ccc(Br)cc1 (stereo not given)	1%	-13%	-2	2.5%
18	CCC(C)(C(=O)NC1CCCC1)N(Cc1ccco1)C(=O)c1ccc2c(c1)OCO2 (stereo not given)	-3%	-8%	0	3.4%
19	O=C(Cn1cc2c(n1)CCCC2)N1CCCc2ccccc21	-15%	16%	1	1.5%
20	O=C(O/N=C1\CCCc2ccccc21)c1ccc(F)cc1	2%	0%	4	0.9%
21	CCOc1ccc(NS(=O)(=O)c2ccc3[nH]cc(C(=O)NCCOC)c(=O)c3c2)cc1	-34%&-1%	-11%	3	0.7%
22	O=C(CSc1nc2[nH]ncc2c(=O)n1-c1ccccc1Br)NCc1ccco1	-13%	-3%	6	0.4%
23	CC(=O)Nc1cccc(C(=O)OCC(=O)Nc2ccc(Cl)cn2)c1	/	6%	/	-3.3%
24	Cn1c(=O)c2ccccc2n(CC(=O)NC2CCCCC2)c1=O	-3%	-1%	/	0.1%
25	Clc1ccccc1C(c1nnnn1Cc1ccco1)N1CCN(Cc2ccco2)CC1 (stereo not given)	-4%	2%	1	-1.0%
26	O=[N+]([O-])c1cc(C(F)(F)F)ccc1NC1CCN(Cc2ccccc2)C1 (stereo not given)	-10%	6%	/	-1.4%
27	Cc1cc2c(=O)oc(-c3ccccc3Br)nc2s1	-4%	-5%	-17	-0.4%
28	O=C1CC(c2nc3ccccc3[nH]2)CN1Cc1ccccc1 (stereo not given)	-9%	0%	-7	?
29	N#Cc1c(/N=C/c2ccc(Br)s2)sc2c1CCC2	-58%	-6%	1	-2.6%
30	CCn1c(SCC(=O)c2ccc(O)c(O)c2)nnc1-c1ccc(C)cc1	-26%	-16%	3	-3.6%
31	NS(=O)(=O)c1ccc(CCNC(=O)c2ccc(Br)s2)cc1	0%	-14%	7	2.4%
32	O=C(COC(=O)c1ccc(Cl)c(S(=O)(=O)N2CCOCC2)c1)NCc1ccco1	/	0%	/	-3.3%
33	CCOC(=O)C1CCN(C(=O)CN(c2ccc3c(c2)OCCO3)S(C)(=O)=O)CC1	-1%	-16%	-4	-1.0%
34	CC1CCCN(C(=O)c2cc3ccccc3cc2O)C1 (stereo not given)	-15%	-6%	/	2.1%
35	Cc1ccc2oc(C(=O)Nc3ccc(S(=O)(=O)Nc4ncccn4)cc3)c(C)c2c1	-4%	-1%	/	-2.3%
36	CC1(C)Cc2[nH]c(=S)c(C#N)cc2CO1	-12%	-5%	-3	-5.3%
37	COc1cc(OC)c(/C=N/NC(=O)c2ccncc2)cc1Br	2%	12%	-11	0.2%
38	CCOc1ccc(CC(=O)Nc2c(C(=O)Nc3ccccc3)oc3ccccc23)cc1OCC	-1%	-18%	9	?
39	Cc1ccc(S(=O)(=O)NC(=NC(C)C(=O)O)c2ccccc2)cc1 (stereo not given)	-2%	0%	-5	1.8%
40	Cc1oc2cc(O)ccc2c(=O)c1-c1cnn(-c2ccccc2)c1	-27%	1%	5	-0.3%
41	COc1cc2c(cc1Cl)C(=O)C(F)(c1ccccc1)C(=O)N2 (stereo not given)	-2%	-4%	-19	4.7%
42	Cc1ccc2c(c1C)NC(C)CC2C (stereo not given)	-2%	-10%	-7	0.2%
43	COc1ccc(S(=O)(=O)NCc2ccccn2)cc1NC(=O)c1ccccc1F	24%	-13%	/	-0.4%
44	CN(C)S(=O)(=O)c1ccc(C(=O)N2CCN(S(=O)(=O)c3cccs3)CC2)cc1	2%	-9%	-4	0.0%
45	CC(=O)NC(C)c1cc(Cl)c2cccnc2c1O (stereo not given)	/	2%	/	1.2%
46	COc1ccc(NC(=O)Nc2ccc(N3CCCC3=O)cc2)cc1OC	-18%	14%	2	-1.7%
47	CC(=O)Nc1ccc2nc(NC(=O)c3cccs3)sc2c1	-30%	-2%	-6	1.2%
48	C/C(=N\NC(=O)Cc1ccc(Cl)cc1)c1ccccn1	9%	-8%	7	3.9%
49	CSc1cccc(NC(=O)CCn2c(=O)c3cccn3c3cccnc32)c1	-1%	13%	/	1.7%
50	Cc1c(Cl)cn2c(=O)cc(CN3CCN(c4ccccc4)CC3)nc2c1Cl	-3%	4%	-1	-2.1%
51	O=c1c(-c2ccc(F)cc2)coc2cc(O)ccc12	-53%	0%	-4	-0.4%
52	COc1cc(N)c2ncccc2c1Cl	/	-10%	/	?
53	CCC(=O)N1COC[C@@H]1Cc1ccccc1	-3%	-15%	5	-0.2%
54	CC1=NN(c2nc3ccccc3s2)C(O)(C(F)(F)F)C1 (stereo not given)	0%	-20%	6	5.8%
55	COC(=O)[C@@]1(C)[C@H]2C(=O)N(Cc3ccccc3)C(=O)[C@H]2[C@H]2CN=C(SCc3ccc(Cl)cc3)N21	/	17%	/	0.1%
56	CCSc1nnc(NC(=O)CC(C)C)s1	-25%	7%	-3	0.5%
57	CN(CC(=O)N(CCO)Cc1ccccc1)S(=O)(=O)c1ccc2c(c1)c(=O)n(C)c(=O)n2C	-7%	4%	/	-2.8%
58	NS(=O)(=O)c1ccc(CNC(=S)NC2CCCCC2)cc1	-4%	-5%	3	0.2%
59	CCn1c(C2CCN(Cc3ccccc3)CC2)n[nH]c1=S	3%	2%	9	-0.2%
60	O=C(NC1CCCCC1)c1cc2cc(Br)ccc2o1	-55%	0%	/	0.6%

The final six compounds of the part before lead into the next.
No.	structure	miR-21 FLuc	Rango dissoc inh	GLA inh pH 4.5	Rango complex inh
55	COC(=O)[C@@]1(C)[C@H]2C(=O)N(Cc3ccccc3)C(=O)[C@H]2[C@H]2CN=C(SCc3ccc(Cl)cc3)N21	/	17%	/	0.1%
56	CCSc1nnc(NC(=O)CC(C)C)s1	-25%	7%	-3	0.5%
57	CN(CC(=O)N(CCO)Cc1ccccc1)S(=O)(=O)c1ccc2c(c1)c(=O)n(C)c(=O)n2C	-7%	4%	/	-2.8%
58	NS(=O)(=O)c1ccc(CNC(=S)NC2CCCCC2)cc1	-4%	-5%	3	0.2%
59	CCn1c(C2CCN(Cc3ccccc3)CC2)n[nH]c1=S	3%	2%	9	-0.2%
60	O=C(NC1CCCCC1)c1cc2cc(Br)ccc2o1	-55%	0%	/	0.6%
61	C[C@H](CO)N1C[C@H](C)[C@@H](CN(C)C(=O)Nc2ccccc2)Oc2ccc(NS(=O)(=O)c3ccc(F)cc3)cc2C1=O	/	-9%	/	-4.7%
62	CN(CCOc1ccccc1)C(=O)C1CCC(=O)N(CCCN2CCCC2=O)C1 (stereo not given)	0%	0%	/	-3.4%
63	COc1ccc(NC(=O)c2cnc(SC)nc2)cc1	-15%	-4%	/	?
64	NC(=O)CC(NC(=O)Cc1ccc(Br)cc1)c1ccc(N2CCC(Cc3ccccc3)CC2)c([N+](=O)[O-])c1 (stereo not given)	-4%	-19%	9	-4.3%
65	Cc1ncsc1CCC(=O)N1CCCC(C(=O)c2cccc(Cl)c2)C1 (stereo not given)	8%	-4%	-3	-2.1%
66	COC(=O)C1C(=O)NCC1c1ccc(C)cc1 (stereo not given)	-2%	1%	-4	-2.8%
67	CCCn1c(Sc2nnnn2-c2ccccc2)n[nH]c1=O	-1%	9%	-2	0.0%
68	COc1cccc(Nc2ccc(C(=O)O)cc2N)c1	-44%	-5%	/	0.4%
69	COc1ccccc1/C=C/CN1CCC(CO)(Cc2ccccc2)CC1	0%	-4%	-11	1.2%
70	Cn1c(C(=O)NCCC2=CCCCC2)cc2c(=O)n3ccccc3nc21	-22%	?	13	?
71	COc1cccc(-c2noc(C3CCCN(C(=O)c4cccc(F)c4)C3)n2)c1 (stereo not given)	-19%	-6%	/	-3.2%
72	O=C(Nc1cc([N+](=O)[O-])ccc1Cl)C(Sc1ccccc1)c1ccccc1 (stereo not given)	-7%	1%	0	-1.8%
73	Cc1cccc(N2CC(C(=O)Nc3nnc(SCc4cccnc4)s3)CC2=O)c1 (stereo not given)	-3%	5%	/	0.2%
74	Cn1c(=O)[nH]c(=O)c2[nH]c(N(Cc3ccccc3)Cc3ccccc3)nc21	24%	38%	6	-0.8%
75	CCOC(=O)c1c(C)n(C)c2ccc(OC)c(NS(=O)(=O)CC)c12	-8%	-7%	10	-3.8%
76	CC(=O)NNc1ccc(C(F)(F)F)cc1[N+](=O)[O-]	-4%	6%	-5	0.5%
77	CCOC1CC(C)(C)NC(=S)N1 (stereo not given)	-4%	16%	0	-0.1%
78	OC1CCCN(CC(O)COC(c2ccc(F)cc2)c2ccc(F)cc2)C1 (stereo not given)	-9%	5%	/	0.3%
79	C=C(C)CN(CC)Cc1c(C(=O)N(C)CCCC)nc2ccccn12	0%	2%	-11	-4.5%
80	NC(=O)C1CCN(CC(=O)Nc2ccc(S(=O)(=O)N3CCOCC3)cc2)CC1	0%	0%	/	11%

Given with each value named: entries from further up
63. COc1ccc(NC(=O)c2cnc(SC)nc2)cc1
  miR-21 FLuc: -15% | Rango dissoc inh: -4% | GLA inh pH 4.5: / | Rango complex inh: ?
64. NC(=O)CC(NC(=O)Cc1ccc(Br)cc1)c1ccc(N2CCC(Cc3ccccc3)CC2)c([N+](=O)[O-])c1 (stereo not given)
  miR-21 FLuc: -4% | Rango dissoc inh: -19% | GLA inh pH 4.5: 9 | Rango complex inh: -4.3%

Next results.
No.	structure	miR-21 FLuc	Rango dissoc inh	GLA inh pH 4.5	Rango complex inh
81	CN(CC1COCCO1)c1nc2nonc2nc1N1CCSCC1 (stereo not given)	1%	-16%	-2	3.7%
82	COc1ccc(CSc2cccc3cccnc23)cc1[N+](=O)[O-]	-37%	2%	-7	6.3%
83	CCOC(=O)c1c(C)[nH]c(/C(C)=N/O)c1C	-5%	0%	-5	0.5%
84	O=[n+]1c2c(n([O-])c3cc(F)ccc31)CCCC2	-2%	21%	6	-2.2%
